Assay outcomes: PubChem, SRMLSC
H5N1 antiviral = antiviral screen in MDCK cells, H5N1 avian flu; cytopathic effect, luminescence, 72 h; stronger effect = higher value; no value below 0 was filed and about half of the inactive calls have no number; reference of the scale not given here; inhibition, % at 50 µM; 96,000 tested, 0.07% active; in the data active = inhibition above about 25%
An asterisk follows results filed as active; i = inactive.

Preview (2 entries):
#	SMILES	H5N1 antiviral
1	COc1cc(C(=O)N2CCN(C(=O)c3ccco3)CC2)cc(OC)c1OC	0.9
2	COc1ccc(NC(=O)CN2C(=O)c3cccc4cccc2c34)c(OC)c1	0.9

Results, from the first entry:
#	SMILES	H5N1 antiviral
1	COc1cc(C(=O)N2CCN(C(=O)c3ccco3)CC2)cc(OC)c1OC	0.9
2	COc1ccc(NC(=O)CN2C(=O)c3cccc4cccc2c34)c(OC)c1	0.9
3	CCCOC(=O)c1ccc(NC(=O)c2cc(OC)c(OC)c(OC)c2Br)cc1	i
4	CCCCOC(=O)c1ccc(NS(=O)(=O)c2cc(-c3nnnn3CC)ccc2OC)cc1	1.7
5	O=C(Nc1ccc(S(=O)(=O)N2CCCCC2)cc1)c1cnccn1	i
6	O=C(CN1C(=O)CSC1=O)N1CCc2ccccc2C1	1.1
7	c1ccc(Cn2nnc3c(NCCN4CCOCC4)ncnc32)cc1	1.5
8	Oc1cccc(/C=N/c2c(-c3ccco3)nc3ccccn23)c1	i
9	COC(=O)c1coc(-c2ccc(OC)cc2)c1C(=O)OC	i
10	CC1(C)C2CCC13CS(=O)(=O)N[C@@H]3C2 (stereo partly specified)	0.2
11	Cc1nc(S(=O)(=O)c2ccc(Cl)cc2Cl)nc2c1CCC2	1.5
12	Cc1cccc(OCc2nnc(N)s2)c1C	i
13	COc1ccc(Nc2nc(N)nc(CSc3nccc(C)n3)n2)cc1	0.3
14	O=S(=O)(c1cccc2cccnc12)N(CCO)CCO	0.6
15	Cc1ccc(S(=O)(=O)N2CCCC(C(=O)NC3=NCCS3)C2)cc1 (stereo unspecified)	i
16	O=C(CSc1nc2cc(Cl)ccc2o1)N1CCOCC1	0.2
17	CCOCCOC(=O)C1=C(C)N(C)C(=O)NC1c1cc(Cl)c(O)c(OC)c1 (stereo unspecified)	0.8
18	CCOC(=O)c1ccc(NC(=O)CSc2nnc(-c3cccs3)n2CC)cc1	i
19	O=c1oc2c3c4c(cc2c(C(F)(F)F)c1CCN1CCOCC1)CCCN4CCC3	i
20	CCSc1nnc(NC(NC(=O)c2ccco2)(C(F)(F)F)C(F)(F)F)s1	0.3
21	CC1(C)CC(=O)c2cc(C(=O)NCc3ccco3)c(=O)n(-c3ccccc3)c2C1	8.8
22	CCn1c(SCC(=O)NCc2ccco2)nc2c1c(=O)n(C)c(=O)n2C	2.6
23	Cc1nc2nc(-c3ccc(Cl)cc3)[nH]n2c(=O)c1Cc1ccccc1	2.8
24	Nc1nonc1OCCc1ccccc1	1.7

As entered above.
compound 23 in H5N1 antiviral is listed with 2.8
compound 17 in H5N1 antiviral is listed with 0.8
compound 20 in H5N1 antiviral is listed with 0.3

Continuation:
#	SMILES	H5N1 antiviral
25	COc1ccccc1CN1CCN(S(=O)(=O)c2ccccc2)CC1	0.2
26	CCC1(C)Cc2c(sc3nc(SC)nc(NCCN(C)C)c23)CO1 (stereo unspecified)	i
27	CCOc1cc(C2C(C(=O)c3ccc(C)o3)=C(O)C(=O)N2CCc2ccccc2)ccc1O (stereo unspecified)	i
28	CC(C)C(CCN1C(=O)CCC1=O)C1CCOC(C)(C)C1 (stereo unspecified)	0.6
29	CCCC(=O)C1CCN(Cc2ccccc2)CC1	i
30	CCn1c(=O)n(CC)c2cc(S(=O)(=O)N3CCCCC3)c(C)cc21	0.5
31	NC(=O)c1ccccc1NS(=O)(=O)Cc1ccc(Cl)cc1	0.4
32	CCc1c(C)nc2ncnn2c1Nc1ccc(C(C)=O)cc1	0.4
33	COc1cccc(NC(=O)c2ccc(NC(C)=O)cc2)c1	i
34	CCC1CCCCN1S(=O)(=O)c1ccc2c(c1)CCN2C(=O)C1CCC1 (stereo unspecified)	1.6
35	CN(C)C(=O)N1CCN(C(=O)c2ccco2)CC1	0.3
36	Cc1ccc(-n2[nH]c(C)c(C=Nc3cc(C)ccn3)c2=O)cc1	i
37	O=C(Nc1ccc(SC(F)F)cc1)c1ccc2nccnc2c1	i
38	CCOc1ccc(CCNC(=O)CN(C)S(=O)(=O)c2cccc3nsnc23)cc1OCC	i
39	COCCOC(=O)c1c(C)oc2ccc(O)c(CN3CCC(C)CC3)c12	i
40	Cc1ccccc1OCC(O)Cn1c(SC(C)C)nc2c1c(=O)[nH]c(=O)n2C (stereo unspecified)	0.3
41	CCn1cc(C(=O)NCC(=O)OC)c2cc(OC)c(OC)cc2c1=O	i
42	Fc1ccc(C2NCCn3cccc32)cc1 (stereo unspecified)	2.0
43	O=C1c2cccnc2C(=O)N1c1cccc(-c2nc3ccccc3o2)c1	i
44	Cc1noc(C)c1CSCC(=O)OCC(=O)Nc1sccc1C#N	0.1
45	O=C(CS(=O)(=O)c1ccccc1)c1ccc2c(c1)OCCO2	1.0
46	Cc1cccc(C(=O)Nc2ccc(O)cc2)c1	0.1
47	COc1ccc(Nc2nc(N3CCCC3)nc3ccccc23)c(OC)c1	i
48	CCN(CC)C(=O)C1CCCN(Cc2ccccc2C(F)(F)F)C1 (stereo unspecified)	i
49	Cc1ccc(-c2cc(C(=O)N/N=C\c3cnn(C)c3C)c3ccccc3n2)cc1C	i
50	COc1ccc(CCC(C)NCCc2ccccc2)cc1 (stereo unspecified)	0.1
51	CCN(CC)S(=O)(=O)c1ccc(C(=O)NCC(c2cccs2)N2CCOCC2)cc1 (stereo unspecified)	i
52	CCOC(=O)c1[nH]c(C)c(CN(CCc2ccccc2)C(=O)CCC(=O)O)c1C	0.5
53	CC1(C)C2CCC1(CS(=O)(=O)NCc1ccc(C(=O)O)cc1)C(=O)C2 (stereo unspecified)	i
54	CCCn1c(SCC(=O)Nc2nnc(C(C)C)s2)nc2c1c(=O)n(C)c(=O)n2C	1.7
55	CCNC(=O)NC1(C(=O)Nc2ccc3c(c2)OCCO3)CCCCC1	i
56	O=C(O)C1CC(=O)N(CCOc2ccccc2)C1 (stereo unspecified)	0.1
57	CC1(C)C(=O)OC(c2ccccc2)C2(CCCC2)C1=O (stereo unspecified)	i
58	COC(=O)CN(c1ccc(C(C)C)cc1)S(=O)(=O)c1c(C)[nH]c(=O)[nH]c1=O	0.6
59	NS(=O)(=O)c1ccc(CNC(=O)CCC2CCCCC2)cc1	0.6
60	CCC(C)C(NC(=O)c1ccccc1NC(=O)c1ccco1)C(=O)NC1CCCCC1 (stereo unspecified)	i

In another format: entries from further up.
52: CCOC(=O)c1[nH]c(C)c(CN(CCc2ccccc2)C(=O)CCC(=O)O)c1C
  H5N1 antiviral = 0.5

53: CC1(C)C2CCC1(CS(=O)(=O)NCc1ccc(C(=O)O)cc1)C(=O)C2 (stereo unspecified)
  H5N1 antiviral = i

54: CCCn1c(SCC(=O)Nc2nnc(C(C)C)s2)nc2c1c(=O)n(C)c(=O)n2C
  H5N1 antiviral = 1.7

55: CCNC(=O)NC1(C(=O)Nc2ccc3c(c2)OCCO3)CCCCC1
  H5N1 antiviral = i

New compounds follow:
#	SMILES	H5N1 antiviral
61	COCCn1c(=S)[nH]c2cc(C(=O)NCC3CCCO3)ccc2c1=O (stereo unspecified)	i
62	C=CCn1c(Cc2ccc(OC)cc2)nnc1SCc1nc2ccccc2c(=O)[nH]1	0.5
63	COCCNC(=O)c1cn(C)c2ccc(S(=O)(=O)N(C)C3CCCCC3)cc2c1=O	1.5
64	O=C(Nc1cccc(Oc2c(F)c(F)c(F)c(F)c2F)c1)N1C[C@@H]2C[C@@H](C1)c1cccc(=O)n1C2	i
65	COc1ccc(OC)c(S(=O)(=O)n2nc(-c3ccccc3)cc2N)c1	0.1
66	O=[N+]([O-])c1ccc(N2CCN(c3nc(-c4ccc(Cl)cc4)cs3)CC2)cc1	i
67	O=C(O)CCCCCNC(=O)CCn1nnc2ccccc2c1=O	i
68	CCOC(=O)c1c(C)[nH]c(C(=O)OCC(=O)NC2CCS(=O)(=O)C2)c1C (stereo unspecified)	0.9
69	COC(=O)c1sc2ccccc2c1-n1cccc1C(=O)C(=O)Nc1ccc(OC)cc1	i
70	Cc1oc(-c2ccccc2F)nc1CS(=O)(=O)CC(=O)N1CCN(Cc2ccccc2)CC1	0.5
71	CCNC(=S)N1CCN(c2ccc([N+](=O)[O-])cc2)CC1	i
72	O=C(ON=C1CCN(S(=O)(=O)c2ccccc2)CC1)c1ccc(Cl)cc1	i
73	COc1ccc(-c2nnc(SCc3cccc(C#N)c3)o2)cc1	0.0
74	Cn1c(=O)c2c(nc(NCCO)n2C)n(C)c1=O	0.4
75	Fc1ccc(-c2nnc(-c3ccc(Cl)cc3Cl)o2)cc1	i
76	CCc1nnc(NC(=O)CSc2nc3c(cc2C#N)CCCC3)s1	i
77	CCc1c(C)nc(SCCOc2ccc(OC)cc2)[nH]c1=O	0.4
78	CN1CCN(c2ccc(NC(=O)c3ccc4c(c3)OCO4)cc2)CC1	i
79	CC(=O)c1cnn(-c2cc(Oc3ccccc3C)ncn2)c1C	i
80	COc1ccc(Cn2c(C)c(C)c(C#N)c2NC(=O)Nc2ccccc2)cc1	i
81	Cc1cnc(NC(=O)CSc2ccc(Cl)cc2)s1	i
82	CCCc1[nH]nc2c1C1(C(=O)N(CC(N)=O)c3ccccc31)C(C(=O)OC)=C(N)O2 (stereo unspecified)	0.2
83	CC(=O)N1CCN(c2ccccc2NC(=O)COc2ccc(Br)cc2)CC1	2.0
84	CC(C)CCOC(=O)c1c(N)n(CC2CCCO2)c2nc3ccccc3nc12 (stereo unspecified)	i
85	CCOc1ccc(C(=O)NCC(=O)OCC(=O)Nc2ccccc2OC)cc1	i
86	CCOC(=O)c1c(COc2ccccc2)oc2ccc(O)cc12	i
87	COCC(=O)c1[nH]c2ccccc2c1C	i
88	COc1ccc(Cc2nc(C(=O)Nc3ccc(F)cc3)cs2)cc1	i
89	Cc1cc(OCC(=O)Nc2ccncc2)cc(C)c1Br	i
90	S=C(NCc1ccccn1)Nc1ccc(Cl)cc1Cl	i
91	COc1ccc(CNc2nc3nc4c(c(=O)n3[nH]2)CCC4)cc1	i
92	Fc1ccc(C2CC(c3ccco3)n3ncnc3N2)cc1 (stereo unspecified)	0.8
93	CSc1ncccc1C(=O)OCc1ccc(COC(=O)c2cccnc2SC)cc1	i
94	O=C(NCc1cccs1)c1cc(-c2ccccc2)on1	0.7
95	CNc1ccc(Br)cc(C(=O)/C=C/c2ccc3c(c2)OCO3)c1=O	24.2
96	CCOC(=O)c1ccccc1-n1c(C)cc(C2N=C(N)Nc3nc4ccccc4n32)c1C (stereo unspecified)	1.2
97	COC(=O)c1ccccc1NC1OC(=O)c2ccccc21 (stereo unspecified)	0.9
98	Cc1ccc(NC(=O)c2cccs2)cc1	i
99	CC(=O)Cc1ccccc1OC(=O)c1ccco1	i
100	COc1ccc(NC(=O)Cn2c(=O)sc3ccccc32)c(OC)c1	0.3
101	COc1ccc(CNC(=O)C2CCN(C(=O)[C@@H](CC(C)C)NC(=O)OC(C)(C)C)CC2)cc1	i
102	COc1ccc(CCC(=O)N2CCC3(CC2)OCCO3)cc1	1.6
103	CCSc1nnc(NC(=O)C2CCCCC2)s1	0.2
104	O=C(O)c1cc2cccc(S(=O)(=O)N3CCOCC3)c2cc1O	0.6
105	Cc1ccc(-c2noc(CCC(=O)NCCN3CCOCC3)n2)cc1	i
106	COc1ccc2nc(NC(=O)CSc3nc4ccccc4o3)sc2c1	i
107	CCOC(=O)c1ccc(Oc2nc(NC)nc(SC)n2)cc1	i
108	O=C1c2sc3nc4ccccc4n3c2C(=O)N1c1ccccc1Cl	i
109	COCCCNC(=O)c1cc(C(=O)c2c(-c3c(Cl)cccc3Cl)noc2C)c[nH]1	i
110	Cc1ccc(-c2nc3ccccc3[nH]2)cc1NC(=O)c1ccc2c(c1)OCO2	2.1
111	Cc1ccc(OCC(=O)NCc2ccccn2)cc1	i
112	COc1cccc(OC)c1OCCCc1c(C)n[nH]c1C	i
113	COc1ccc(C)cc1NS(=O)(=O)c1ccc(Br)s1	0.7
114	Cc1cc2c(C)c(C)c(=O)[nH]c2cc1N	i
115	O=C1C2C3c4ccccc4C(c4ccccc43)C2C(=O)N1c1nc(-c2ccccc2)cs1 (stereo unspecified)	i
116	CCCCOc1ccc(S(=O)(=O)n2c(C)nc3ccccc32)cc1	i
117	CN=C(Nc1cc(C)nn1CCC#N)c1ccccc1	0.5
118	Cc1ccc(OCC(=O)Nc2ccc(N3CCOCC3)cc2)cc1	i
119	COc1ccc(NC(=O)C2CCN(c3nnnn3-c3ccccc3)CC2)cc1	i
120	O=C(/C=C/c1ccccc1)N1CCN(Cc2nc3ccccc3c(=O)[nH]2)CC1	i

Next section:
#	SMILES	H5N1 antiviral
121	O=C1CCCN1c1ccc(S(=O)(=O)N2CCC(c3ccccc3)CC2)cc1	0.1
122	CCOc1ccc(CCNC(=O)c2cccc(N3CCCC3=O)c2)cc1OCC	0.1
123	O=S(=O)(NCCn1ccc2ccccc21)c1ccccc1	i
124	COc1ccccc1-c1c(C)nn2c(NCCN3CCCC3)cc(C)nc12	i
125	CC(C)(C)c1nc(SCC(=O)NCc2ccco2)c2ccccc2n1	0.1
126	Cc1ccc(-n2c(CCC(=O)O)ccc2-c2cccs2)cc1C	i
127	CC(C)CCN1CC(C(=O)N2CCN(c3ccc(F)cc3)CC2)CC1=O (stereo unspecified)	i
128	CCCSc1nc(O)c(C2OC(=O)c3c2ccc(OC)c3OC)c(=O)n1C (stereo unspecified)	i
129	CCC(=NCCO)c1c(O)n(-c2ccccc2)c(=O)[nH]c1=O	i
130	COc1ccc(OC)c(CNCCNC(=O)c2ccco2)c1	i
131	N/C(=N\OC(=O)c1cccc(Cl)c1)c1cccnc1	i
132	O=C(O)c1c[nH]c2ccc(S(=O)(=O)N(CCCl)CCCl)cc12	1.6
133	Clc1ccc(-c2nnc3sc(Cc4cccs4)nn23)c(Cl)c1	i
134	O=C(NCCc1ccccc1)C1CCN(S(=O)(=O)N2CCCC2)CC1	0.0
135	CC(=O)c1cc(-c2ccccc2)[nH]c1N1CCCC1	i
136	Cc1nc2sc3c(c2c(=O)n1/N=C/c1ccco1)CCCC3	i

This is a subset (hit frequency here may not be typical).
